GLA inh pH 4.5: blocks human alpha-galactosidase A at pH 4.5; activity change, negative = inhibition, % at 105 µM; 230,000 tested, under 10 active; purified enzyme, 4-MU-alpha-Gal fluorescence, pH 4.5; P06280; AID 1467; inconclusive = small, poorly fitted or top-dose-only inhibition, or a rising curve; inactive = flat fitted curve, though single readings scatter; no compound was filed as active;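 note: 0% = full activity with enzyme and -100% = basal without enzyme; dose as in the result columns while the protocol names 77 µM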
Target sequence (P06280 whole entry, looked up): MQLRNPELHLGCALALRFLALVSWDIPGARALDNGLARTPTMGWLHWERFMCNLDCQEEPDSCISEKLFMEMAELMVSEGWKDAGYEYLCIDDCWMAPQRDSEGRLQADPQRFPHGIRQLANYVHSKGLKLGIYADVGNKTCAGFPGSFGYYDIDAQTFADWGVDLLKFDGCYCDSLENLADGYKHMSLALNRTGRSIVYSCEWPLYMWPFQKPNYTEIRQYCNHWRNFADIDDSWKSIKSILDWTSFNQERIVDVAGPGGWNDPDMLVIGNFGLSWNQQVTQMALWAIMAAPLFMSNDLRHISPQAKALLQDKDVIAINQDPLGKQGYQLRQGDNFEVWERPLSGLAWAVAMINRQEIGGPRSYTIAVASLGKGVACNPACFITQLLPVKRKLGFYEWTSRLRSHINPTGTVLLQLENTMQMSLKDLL
Rango release inh: inhibitors of RanGTP-induced Rango-importin beta complex dissociation; Biochemical FRET Rango-importin beta, RanGTP-induced dissociation; hit rate 0.071% among 340,000; Potency, µM (top dose mostly 46.1 µM), without a hit: top-dose activity change, negative = inhibition; O95149+P62826; active means falling FRET ratio curve, often poorly fitted, with flat reads before Ran was added; inconclusive means other falling curves, or compound fluorescence or quenching; inactive means flat or rising ratio curve;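 note: potency is the fitted concentration of half-maximal effect; % of control where 0% means no effect; nearly all actives have a fitted effect of over 45% in size; -100% = wells without RanGTP and RCC1; the record marks most hits as doubtful in a second field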
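Rango FRET biosensor (snurportin-1 IBB flanked by N-terminal EYFP and C-terminal CFP10) at 0.1 uM, with 0.25 uM importin beta in PBS, 1mM DTT, 0.02% Tween-20, 0.1% BSA. 0.6 uM Ran, 2mM GTP and 0.2 uM RCC1 were then added for 45 min at room temperature. Inhibition read as loss of FRET rise.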
Rango-impB inh: inhibitors of Rango-importin beta complex formation; Q14974; Rango CFP/YFP FRET sensor + importin beta, 45 min; Potency, µM (highest dose often 92.2 µM), for the others: at the top dose inhibition of complex formation; hit rate 0.031% among 340,000; active = rising FRET ratio curve, often small or poorly fitted; inconclusive = mostly compound fluorescence or quenching in the first reads; inactive = flat curves in all reads;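 note: potency is the fitted concentration of half-maximal effect; 0% = DMSO wells and 100% = buffer wells lacking importin beta; nearly all actives have a fitted effect of over 15% in size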
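Inhibition scored from the CFP 486 nm/YFP 530 nm FRET ratio 45 min after adding 0.125 microM importin beta to 50 nM Rango biosensor preincubated 5 min with compound (room temperature, PBS with DTT, Tween-20, BSA). No-importin wells as positive control.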
miR-21 FLuc: raises the signal of a miR-21 reporter; HeLa miR-21 FLuc reporter, luciferase, 48 h; AID 2288; 340,000 tested, under 10 active; Potency, µM (doses to about 38.3 µM), inactives show at the top dose reporter change, positive = more light; active = well fitted rising curve with a large enough effect; inconclusive = small, poorly fitted or top-dose-only effect; inactive = no such curve, though single readings can be large or run the other way;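 note: % of control where 0% means no effect; miR-21 action dims this reporter so a rising signal means less miR-21 action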
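Using DMEM plus 10% FBS, HeLa miR-21-FLuc cells are incubated with test compounds (final up to about 40uM) for 48 hours; firefly luciferase signal is then imaged following reagent-mediated lysis.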
Numbers without * were called inactive; u = inconclusive; x = not tested or not shown; & = joins results of further samples.

entry	Molecule	GLA inh pH 4.5	Rango release inh	Rango-impB inh	miR-21 FLuc
1	O=C1OC(Nc2ccc(F)cc2F)c2ccccc21 (stereo unspecified)	0	10%	7.1%	-2%
2	Cc1cc(OC(=O)c2c(F)cc(F)cc2F)nc(C)n1	-9	-8%	2.7%	-1%
3	CNC(=O)c1nc(C)c(C2(C)CC(c3cccc([N+](=O)[O-])c3)=NO2)s1 (stereo unspecified)	-1	3%	-1.1%	-1%
4	CS(=O)(=O)N1CCN(S(=O)(=O)c2ccccc2[N+](=O)[O-])CC1	6	25%	-5.9%	-1%
5	COc1cc2[nH]c(=O)n(CCCCCC(=O)N3CCN(c4ccccn4)CC3)c(=O)c2cc1OC	10	-24%	0.5%	1%
6	CC1=NN(S(=O)(=O)c2ccc(Cl)cc2Cl)C(=O)c2ccccc2O1	2	-10%	-3.8%	0%
7	CCn1nnc(-c2ccccc2NS(=O)(=O)c2ccc(S(=O)(=O)N3CCCCCC3)cc2)n1	-3	1%	-0.6%	-10%
8	CCOCCOC(=O)c1cccc(NC(=O)OCC)c1	3	24%	-0.5%	-12%
9	Cc1ccc(-n2c(CNc3ccc(F)cc3)nnc2SCC(=O)N2CCOCC2)cc1	6	13%	5.5%	-2%
10	CCc1oc2c(C)c(O)ccc2c(=O)c1-c1ccc2ccccc2n1	6	8%	-4.1%	-3%
11	CCOC(=O)N1CCN(CC(=O)Nc2nc3ccc(OC)cc3s2)CC1	x	u	-0.1%	23%
12	COCCSc1ccccc1C(=O)Nc1cc(C)cc(C)c1	5	6%	-1.2%	-2%
13	Cc1ccc(O)c(C(=O)c2cnn(C(=O)COc3ccccc3C#N)c2)c1	6	x	x	1%
14	O=C(Cn1nnc2ccccc2c1=O)N1CCOCC1	3	-3%	-1.7%	-1%
15	Brc1ccc(C2=Nn3c(Cn4nnc5ccccc54)nnc3SC2)cc1	5	0%	-2.4%	2%
16	Oc1ccc(Nc2ncnc3c2oc2ccccc23)cc1	x	-14%	u	-86%
17	COC(=O)C(NS(=O)(=O)c1cccc(S(=O)(=O)NC(C(=O)OC)c2ccccc2)c1)c1ccccc1 (stereo unspecified)	x	20%	u	1%
18	COc1ccc(CCNC(=O)CN2C(=O)c3ccccc3C2=O)cc1	3	-11%	0.5%	0%
19	COCCN(C(=O)CSc1nnc(C)n1Cc1ccccc1)c1c(N)n(Cc2ccccc2)c(=O)[nH]c1=O	-3	-2%	-0.1%	1%
20	CCOC(=O)c1ccccc1NC1CC(=O)N(c2ccccc2C)C1=O (stereo unspecified)	11	0%	-0.8%	-1%
21	O=C(O)c1cccc(NC(=S)NC(NC(=O)c2cccc([N+](=O)[O-])c2)C(Cl)(Cl)Cl)c1 (stereo unspecified)	6	-9%	0.4%	0%
22	O=C(c1ccc(OC2CCN(Cc3ccccc3C(F)(F)F)CC2)cc1)N1CCCCC1	x	-21%	2.9%	4%
23	CCC(CC)C(=O)c1c[nH]c(C(=O)NCC2CCCO2)c1 (stereo unspecified)	-8	-8%	-3.9%	-1%
24	O=C(Nc1ccnn1C1CCN(C/C=C/c2ccccc2)CC1)c1ccccc1Cl	x	0%	-0.4%	0%
25	CC(C)(C)NC(=O)Nc1ccc(F)c(Cl)c1	-18	-9%	-1.8%	-7%
26	COc1ccc(-c2nc(CS(=O)CC(=O)NC3CCCCC3C)c(C)o2)cc1OC (stereo unspecified)	x	25%	0.0%	-8%
27	Cc1noc(C)c1CSc1nnc2scc(-c3ccccc3)n12	-5	-6%	0.1%	-5%
28	CN(C)C(CNC(=O)Cc1ccc([N+](=O)[O-])cc1)c1ccccc1 (stereo unspecified)	1	-3%	-2.2%	2%
29	NC(=O)c1c(NC(=O)Cn2nc(C(=O)O)c3ccccc3c2=O)sc2c1CCC2	-6	8%	0.0%	0%
30	Fc1ccc(/C=N/NC2=Nc3cccc4cccc2c34)cc1	-4	u	u	-48%

Pulled by structure from the entries so far, three records:
entry	Molecule	GLA inh pH 4.5	Rango release inh	Rango-impB inh	miR-21 FLuc
13	Cc1ccc(O)c(C(=O)c2cnn(C(=O)COc3ccccc3C#N)c2)c1	6	x	x	1%
15	Brc1ccc(C2=Nn3c(Cn4nnc5ccccc54)nnc3SC2)cc1	5	0%	-2.4%	2%
12	COCCSc1ccccc1C(=O)Nc1cc(C)cc(C)c1	5	6%	-1.2%	-2%

An excerpt from above, limited to Rango release inh:
no. | canonical_smiles | Rango release inh
9 | Cc1ccc(-n2c(CNc3ccc(F)cc3)nnc2SCC(=O)N2CCOCC2)cc1 | 13%
10 | CCc1oc2c(C)c(O)ccc2c(=O)c1-c1ccc2ccccc2n1 | 8%

Continued.
entry	Molecule	GLA inh pH 4.5	Rango release inh	Rango-impB inh	miR-21 FLuc
31	O=C(CNS(=O)(=O)c1ccc(F)cc1)N1CCN(c2ccccc2)CC1	-5	-9%	4.2%	-11%
32	CCOc1ccc(-n2c(SCC(=O)NCc3ccco3)nc3c([nH]c4ccccc43)c2=O)cc1	x	-14%	u	1%
33	Cc1ccccc1NC(=O)c1c2c(nc3ccccc13)CCC2	4	11%	-2.8%	-1%
34	N#Cc1cccc(S(=O)(=O)N2CCN(c3ccnc4cc(Cl)ccc34)CC2)c1	x	2%	4.1%	8%
35	CCOC(=O)C1(Cc2ccccc2)CCCN(C(=O)c2ccc(-n3ccnc3)cc2)C1 (stereo unspecified)	x	0%	3.6%	-11%
36	Cc1csc(NC(=O)CSc2nnc(CCNC(=O)c3cccs3)n2C)n1	1	15%	1.3%	-1%
37	CC(=O)Nc1ccc(C(=O)N2CC(=O)NC(=O)C2)cc1	-3	6%	-2.3%	-13%
38	COC(=O)c1ccccc1NC(=O)CN1CCC(NC(=O)c2ccc(C)cc2)CC1	-4	1%	1.8%	3%
39	CCOc1ccc(N2CC(C(=O)Nc3cc(C)on3)CC2=O)cc1 (stereo unspecified)	-2	8%	-3.9%	-4%
40	Cn1c(=O)c2c(nc(N/N=C/c3ccc(OC(=O)c4ccco4)cc3)n2Cc2ccccc2Cl)n(C)c1=O	-13	11%	-1.1%	0%
41	COc1ccc(CCN(C)CC(O)c2ccccc2)cc1OC (stereo unspecified)	0	1%	-3.1%	-8%
42	COc1ccccc1NC(=S)NC(C)=O	3	3%	-2.6%	-8%
43	CCOC(=O)Cc1csc(NC(=O)Nc2ccc(C)cc2)n1	3	-6%	0.9%	-16%
44	COc1c(C)cccc1C(=O)Nc1ccc(OCC(=O)N2CCOCC2)cc1C	x	1%	-0.7%	25%
45	CC1=Nc2cc(C(=O)N3CCCC3)ccc2Sc2c(C)ccc(C)c21	x	0%	-0.3%	29%
46	O=C(O)CCCn1cc(NC(=O)COc2ccccc2F)cn1	x	17%	-0.7%	-1%&-5%
47	Cc1ccc(-c2c[n+](CC(=O)N3c4ccccc4Sc4ccccc43)c3n2CCC3)cc1	10	-8%	1.6%	19%
48	CC(=O)N1N=C(c2ccc(C)o2)CC1c1ccc(Br)cc1 (stereo unspecified)	-1	6%	6.0%	-47%
49	Cc1cc(=O)n2nc(N3CCCC(C(=O)NCc4ccc(F)cc4)C3)sc2n1 (stereo unspecified)	x	-7%	-1.3%	-2%
50	COc1ccc(C(C)=O)cc1CSc1nc2nc(C)cc(C)n2n1	0	2%	0.4%	-15%
51	O=C(NCc1ccccc1CN1CCCC1)c1cc2ccccc2o1	x	15%	-2.6%	x
52	CCOC(=O)c1c(C)[nH]c(C(=O)COC(=O)c2ccc(N3CCCC3=O)cc2)c1C	7	1%	0.8%	6%
53	COc1cc2ccc(=O)oc2c(O)c1OCC=C(C)C	-1&-8	u	u	-30%
54	CNCC[C@@H](Oc1ccccc1C)c1ccccc1	-4	-28%	4.1%	x
55	COc1cc(C(=O)Nc2ccc3c(c2)Cc2cc(NC(=O)c4cc(OC)c(OC)c(OC)c4)ccc2-3)cc(OC)c1OC	-2	2%	-0.2%	-2%
56	O=C(NCc1cccnc1)c1ccc(NS(=O)(=O)c2ccc(F)cc2)cc1	x	-13%	1.9%	-5%
57	COc1cccc(N(C(=O)C2CSC(=O)C2)C(C(=O)NC(C)(C)C)c2ccncc2)c1 (stereo unspecified)	0	15%	2.4%	-5%
58	O=C(Nc1cccc(F)c1)c1cc(S(=O)(=O)NCCC2=CCCCC2)ccc1F	-12	4%	0.5%	u
59	COc1ccc(C)cc1NC(=O)CN(C)S(=O)(=O)c1cccs1	1	23%	2.9%	-9%
60	N#Cc1ccc(NC(=O)N2CCC(c3nc4c(nnn4Cc4cccc(Cl)c4)c(=O)[nH]3)CC2)cc1	-5	5%	5.2%	-7%

4 compounds out of the list, sorted by SMILES length, rising.
entry	Molecule	GLA inh pH 4.5	Rango release inh	Rango-impB inh	miR-21 FLuc
46	O=C(O)CCCn1cc(NC(=O)COc2ccccc2F)cn1	x	17%	-0.7%	-1%&-5%
50	COc1ccc(C(C)=O)cc1CSc1nc2nc(C)cc(C)n2n1	0	2%	0.4%	-15%
36	Cc1csc(NC(=O)CSc2nnc(CCNC(=O)c3cccs3)n2C)n1	1	15%	1.3%	-1%
35	CCOC(=O)C1(Cc2ccccc2)CCCN(C(=O)c2ccc(-n3ccnc3)cc2)C1 (stereo unspecified)	x	0%	3.6%	-11%

More structures follow.
entry	Molecule	GLA inh pH 4.5	Rango release inh	Rango-impB inh	miR-21 FLuc
61	CC1CCN(C(=O)Cn2nnc(-c3ccc(C(C)C)cc3)n2)CC1	x	2%	-1.6%	-5%
62	C[n+]1ccn(CC(=O)c2ccc(Cl)cc2)c1	-5	1%	u	0%
63	COc1cc(Cl)ccc1OCc1cc(C(=O)NCCCN2CCCC2=O)no1	x	4%	4.6%	-6%
64	CC(O)CN1CCN(C(=O)CN2C(=O)NC(c3ccccc3)(c3ccccc3)C2=O)CC1 (stereo unspecified)	x	-13%	-2.7%	-4%
65	CCN(CC)S(=O)(=O)c1cc(NC(=O)c2ccc(Br)s2)ccc1C	-3	0%	u	-1%
66	CCOc1ccc(N(CC(=O)NCCSc2ccccn2)S(=O)(=O)c2ccc(Cl)cc2)cc1	x	10%	0.4%	-1%
67	CC(C)CC(=O)NC(=S)NCc1ccccc1	1	12%	-4.8%	1%
68	CC(C)C(=O)NC(=S)Nc1ccc(S(=O)(=O)NC(C)(C)C)cc1	3	15%	3.6%	6%
69	Cc1ccc2c(c1)NC(=O)C(CC(=O)Nc1ccc(CN3CCC(C)CC3)cc1)O2 (stereo unspecified)	-17	2%	-0.2%	-6%
70	CCOC(=O)Nc1ccc2c(c1)N(C(=O)CCCl)c1ccccc1[S@]2=O	x	-2%	0.7%	u
71	Cc1ccc(COc2coc(CO)cc2=O)cc1	-10	1%	2.0%	-28%
72	COc1cc(OC)cc(-c2n[nH]c(=S)n2-c2ccc3c(c2)OCCO3)c1	3	7%	1.8%	-33%
73	Cc1cc(Br)ccc1NC(=O)C1CCN(S(=O)(=O)c2cnc[nH]2)CC1	x	-1%	3.7%	0%
74	COCCN(C(=O)C(F)(F)F)C(C(=O)NC1CCCCC1)c1ccco1 (stereo unspecified)	0	9%	3.2%	-2%
75	CC(C)(C)c1ccc(C(=O)O)c(C(=O)c2ccccc2)c1	7	-5%	4.5%	-3%
76	Cc1ccsc1/C=N\NC(=O)CC(=O)NCc1ccccc1	4	6%	0.0%	-4%
77	Cn1c(SCC(=O)N2CCCc3ccccc32)nnc1-c1ccccc1	3	-13%	-0.7%	-3%
78	CC1CC(C)CN(C(=O)CCC(=O)Nc2nnc(C(C)C)s2)C1 (stereo unspecified)	x	-1%	-1.9%	-2%
79	O=C(Nc1cc2c(ccc3ccccc32)oc1=O)C1CCCCC1	3	-3%	15%	-2%
80	CCn1c(C(=O)NC2CCC(C)CC2)cc2sccc21 (stereo unspecified)	x	u	-2.7%	-25%
81	COc1ccc(C(=O)NC2(C(F)(F)F)N=C3SCCN3C2=O)cc1 (stereo unspecified)	-4	18%	-1.7%	-3%
82	Cc1ccc(S(=O)(=O)N(C)c2ccc(OC(=O)CN3C(=O)NC4(CCCC4)C3=O)cc2)cc1C	x	-1%	1.8%	x

Screening results as filed in PubChem BioAssay.

Some of the compounds tested, so the mix of outcomes need not match the whole.
